TsaE inh: YjeE (TsaE) inhibition, E. coli. 0.05% of 71,000 active. purified YjeE, fluorescence polarisation of a bound ADP probe. AID 605. Potency, µM; active = well fitted falling curve; inconclusive = weaker or top-dose-only fall, or a rising curve; inactive = flat or poorly fitted curve;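 also: top concentration of the series not given in the record; excess ADP was the control for the full effect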
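Fluorescence polarization of a BODIPY Texas Red–ADP probe (2 uM) bound to purified YjeE (10 uM) was read after 15 min room-temperature incubation with compounds. Loss of polarization marks inhibitors; ADP serves as titrated control.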
PK Bst: pyruvate kinase (B. stearothermophilus) modulation; partly purified Bacillus stearothermophilus pyruvate kinase, luminescence ATP production; ribose 5-phosphate activator present at AC10; Potency, µM; 1.2% of 51,000 active; AID 361; in the data active means potency below about 11 µM; inconclusive means mostly about 12 µM to 25 µM; inactive means weaker than that;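 the screen sought inhibitors and activators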;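 also: potency is read from the fitted curve at half-maximal effect; scaled between full activation by ribose 5 phosphate and full inhibition by luteolin; about four in five hits inhibit and the cells do not say which; series up to 57 µM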
* hit, by the source's call; i = inactive; ? = inconclusive; / = no result given.

SMILES	TsaE inh	PK Bst
COCCNC(=O)C(c1ccc(C)o1)N(Cc1ccc(F)cc1)C(=O)Cn1nnc2ccccc21 (centres undefined)	i	>57
Cc1ccc(-c2cc(-c3nnc(SCC(=O)N(C)CCC#N)n3N)c3ccccc3n2)cc1	i	i
CCCC(=O)Nc1ccccc1N1CCN(C(=O)C(C)C)CC1	i	>57
CC(=O)Nc1ccc(NC(=O)CNS(=O)(=O)c2ccc(C)cc2)cc1	i	?
O=C(Cn1c(=O)n(Cc2ccc3c(c2)OCO3)c(=O)c2ccccc21)N1CCCc2ccccc21	i	>57
CN1/C(=C\C(=O)c2cccs2)Sc2ccccc21	i	6.6*
Cn1cnc2c1c(=O)n(CC(O)CO)c(=O)n2C (centres undefined)	i	>57
CC(/C=C/c1ccccc1)NC(N)=O (centres undefined)	i	/
COc1ccc(CNc2cc(-c3cccc(NS(C)(=O)=O)c3)ncn2)c(OC)c1	i	/
COC(=O)c1oc2c(c1C)C1(CCC2)SCCS1	i	>57
Cc1c(C(=O)Nc2ccc(F)cc2)oc2ccc(S(=O)(=O)N3CCCC3)cc12	i	/
CCNC(=S)NCC	i	/
CCCn1c(SCC(=O)N2CCN(c3ccccc3)CC2)nc2ccccc2c1=O	i	>57
Cc1c(C)c2ccc(OCc3ccc(C(=O)O)o3)c(C)c2oc1=O	i	>57
COc1ccc(Cc2nc3ccc(S(N)(=O)=O)cc3[nH]2)cc1OC	i	>57
Cn1c(=O)[nH]c(=O)c2c1nc(NCc1ccccc1)n2CCCc1ccccc1	i	>57
N#CC1=C(N)Oc2n[nH]c(-c3cccs3)c2C1c1ccsc1 (centres undefined)	i	>57
CCC(=O)NC1(C(F)(F)F)C(=O)Nc2c1c(=O)[nH]c(=O)n2Cc1ccco1 (centres undefined)	/	>26
N#CCc1ccccc1[N+](=O)[O-]	i	/
CCOc1ccc2nc(NC(=O)CSc3nnnn3C3CCCCC3)sc2c1	i	>57
O=C(Oc1ccccc1)N1CCC2(CC1)CN(c1ncccn1)C2	i	/
CCOC(=O)N1CCN(Cc2ccccc2F)CC1	i	>57
COc1cc(NC(=O)CN2c3cccc4cccc(c34)S2(=O)=O)cc(OC)c1OC	i	0.81*
CC(C)(C)NC(=O)Cn1c(SCC(=O)NCc2cccs2)nc2ccccc21	i	>57

Some of the entries so far, as comma-separated lines:
structure,TsaE inh,PK Bst
N#CCc1ccccc1[N+](=O)[O-],i,/
CCOc1ccc2nc(NC(=O)CSc3nnnn3C3CCCCC3)sc2c1,i,>57

(continued)
SMILES	TsaE inh	PK Bst
COc1cc(C(=O)OCCN2CCCCC2)ccc1O	/	>11
COc1ccc(OC)c(C2C(C#N)=C(N)Oc3cc(C)[nH]c(=O)c32)c1 (centres undefined)	/	>26
COc1ccc2c(-c3cccnc3)cc(=O)[nH]c2c1	i	>57
Cc1ccc2[nH]c3c(c2c1)CCC3=O	i	>57
CC(=O)CCn1c(=O)n(CCC(C)=O)c(=O)n(CCC(C)=O)c1=O	/	>26
O=C(O)[C@H]1CN[C@H](C(=O)O)C1	i	/
COC(=O)c1c(N)n(-c2ccc(NC(C)=O)cc2)c2nc3ccccc3nc12	i	/
Cc1nnc(SCCn2c(Br)nc3c2c(=O)[nH]c(=O)n3C)s1	i	>57
CCC(C)[C@H](NC(=O)NCc1ccco1)C(=O)O (some centres undefined)	i	>57
O=c1c(CCc2ccccc2)nc2cnc(N3CCOCC3)nc2n1Cc1cccs1	i	/
Cc1cc(C)n2c(SCC#N)nnc2n1	i	/
CCCn1c(CCc2ccccc2)nnc1SCC(=O)N1CCOCC1	i	>57
CCC[C@H]1C[C@H](C(=O)N[C@@H]([C@H]2O[C@@H](SC)[C@@H](O)[C@@H](O)[C@@H]2O)[C@H](C)Cl)N(C)C1	i	/
CCC(=O)c1ccc(OCC(O)CN2CCOCC2)cc1 (centres undefined)	i	>57
CC/C=C/C/C=C/C/C=C/CCCCCCCC(=O)OCC	i	/
CN(CCO)C(=O)CCC(=O)Nc1ccc(S(N)(=O)=O)cc1	i	>57
O=C(c1ccccc1F)N1CCN(c2ccccc2)CC1	i	>57
CCOC(=O)C1C(=O)OC2(CCCC2)C1C(=O)OCC (centres undefined)	i	>57
COc1ccc(NC(=O)CCc2nc(-c3ccc(C)cc3)no2)cc1Cl	i	>57
CCOC(=O)/C(C#N)=C1/C=CN(C)C(C)=N1	i	/
Cn1c(N)c(C(=O)COC(=O)C2(c3cccc(F)c3)CCCC2)c(=O)n(C)c1=O	i	>57
COc1ccc2[nH]c3nc(SCc4nnc(-c5ccc(C)cc5)o4)nnc3c2c1	i	>57
CC1(C)CC(=O)C2=C(C1)N(Cc1ccco1)C(=O)C2(NC(=O)c1cccnc1)C(F)(F)F (centres undefined)	/	>26
COc1cc(C(=O)N(Cc2cc3cc(C)ccc3[nH]c2=O)CC2CCCO2)cc(OC)c1OC (centres undefined)	i	>57
COCCN(Cc1cc2ccccc2[nH]c1=O)C(=O)c1ccccc1OC	i	>57
O=S(=O)(c1ccc(-c2nnc(SCc3ccccc3)o2)cc1)N1CCCC1	i	>57
CCn1c(CNC(=O)COC)nc2ccccc21	i	/
Cc1cc(C)c(C(N)=O)c(Nc2ccc3c(c2)OCCO3)n1	i	>57
Cc1ccc(OCc2nnc(SCc3cc(=O)[nH]c4ccccc34)o2)cc1	i	>57
CCc1nnc(NC(=O)CSc2nnc(-c3cc4ccccc4cc3O)n2CC)s1	i	/
COc1ccc(-c2nnc(SCC#N)o2)cc1	i	>57
COc1ccc(NC(=O)CSc2nc3ccccc3c(=O)n2CCC(=O)N2CCCCC2)cc1	i	>57
Cc1ccc(-c2nnc(N3CCN(C(=O)c4ccco4)CC3)c3ccccc23)cc1	i	>57
Cc1c(Cl)cccc1-n1ccnc1SCC(=O)O	i	?
O=S(=O)(c1ccc(Oc2ccc(Br)cc2F)nc1)N1CCCCC1	i	>57
Cn1c(O)c(C=NC(CC(N)=O)C(=O)O)c(=O)n(C)c1=O (centres undefined)	i	>57

Gathered by group: the entries above with bromine.
SMILES	TsaE inh	PK Bst
Cc1nnc(SCCn2c(Br)nc3c2c(=O)[nH]c(=O)n3C)s1	i	>57
O=S(=O)(c1ccc(Oc2ccc(Br)cc2F)nc1)N1CCCCC1	i	>57

Profiles as entered above. Values in the order: TsaE inh	PK Bst
`CCC(=O)c1ccc(OCC(O)CN2CCOCC2)cc1` (centres undefined) as listed: i	>57
`Cc1ccc2[nH]c3c(c2c1)CCC3=O` as listed: i	>57
`CCOC(=O)C1C(=O)OC2(CCCC2)C1C(=O)OCC` (centres undefined) as listed: i	>57
`Cn1cnc2c1c(=O)n(CC(O)CO)c(=O)n2C` (centres undefined) as listed: i	>57
`Cc1ccc(-c2nnc(N3CCN(C(=O)c4ccco4)CC3)c3ccccc23)cc1` as listed: i	>57

(listing goes on)
SMILES	TsaE inh	PK Bst
O=C(Nc1cccc(Cl)c1N1CCCCC1)c1ccc2c(c1)OCCO2	i	>57
Cc1noc(C)c1C(=O)OCC(=O)c1ccc[nH]1	i	>57
COc1ccc(N2CCN(C(=O)CSc3nnc(-c4cc5ccccc5cc4O)n3C)CC2)cc1	i	>57
COCCOC(=O)C1=C(C)NC2=C(C(=O)CC(C)(C)C2)C1c1cccnc1 (centres undefined)	i	>57
Cc1ccc(S(=O)(=O)N2CCN(C(=O)CN3CCOCC3)C2C(C)C)cc1 (centres undefined)	i	>57
CC(=O)Nc1cccc(OCC(O)Cn2cnc3ccccc32)c1 (centres undefined)	i	>57
Cc1cccc(-n2c(N)c(C(=O)NCCN3CCOCC3)c3nc4ccccc4nc32)c1	i	>57
N#Cc1c2n(c3c(=O)n(Cc4ccccc4Cl)cnc13)CCCC2	i	>57
O=S(=O)(c1cccc2cccnc12)N1CCN(Cc2ccc3c(c2)OCO3)CC1	i	/
CCc1nnc(NC(=O)C2CCN(c3nccc(C)n3)CC2)s1	i	>57
COC(=O)c1c(NC(=O)CSc2nnc(Cn3nnc4ccccc43)n2C)sc(C)c1C	i	>57
CCC(=O)NC(C)C(c1cccs1)N1CCOCC1 (centres undefined)	i	>57
C=CCSc1n[nH]c(-c2ccc(OCCCC)cc2)n1	i	>57
Cc1ccc(NC(=O)NC2(C(=O)NCc3ccco3)CCCCC2)cc1	i	>57
COC(=O)c1[nH]c2ccc(F)cc2c1NS(=O)(=O)c1ccc(OC)cc1OC	i	>57
N#Cc1nc(COc2cccc(Cl)c2)oc1N1CCN(c2ccccc2)CC1	i	>57
CCOc1ccc(NS(=O)(=O)c2ccc3c(c2)CCN3C(=O)CCC(=O)O)cc1	i	>57
O=C1c2cccc3cccc(c23)N1CN1CCN(c2ccccn2)CC1	i	>57
CCCCn1c(SCC(=O)NC(C)(C)C)nnc1-c1ccco1	i	>57
COc1cccc(Nc2nc(=O)[nH]nc2C)c1	i	>57
COc1ccc(N2CCC(CNC(=O)Nc3ccc(OC)cc3OC)C2)cc1 (centres undefined)	i	>57
COc1ccc(-c2nnc(SCc3ccccc3F)o2)cc1OC	i	>57
COC(=O)c1[nH]c2cccc(OC)c2c1NC(=O)CCN1CCN(c2ccccc2F)CC1	i	>57
Cc1ccc(OCCCC(=O)Nc2ccc(S(=O)(=O)Nc3cc(C)on3)cc2)cc1	i	>57

A different layout for part of the listing above:
> COc1ccc(-c2nnc(SCc3ccccc3F)o2)cc1OC
  TsaE inh = i
  PK Bst = >57
> CCCCn1c(SCC(=O)NC(C)(C)C)nnc1-c1ccco1
  TsaE inh = i
  PK Bst = >57

Further records.
SMILES	TsaE inh	PK Bst
CC(=O)Oc1ccccc1C(=O)Oc1ccccc1C(=O)O	i	/
COCCn1c(-c2cc(OC)c(OC)c(OC)c2)nc2oc3ccccc3c(=O)c2c1=O	i	>57
CC(=O)Oc1ccc2c(C)cc(=O)[nH]c2c1	/	>26
CC(=O)NCc1cn2c(C)csc2n1	i	/
CC(C)=C1C(=O)C(c2ccccc2)=C2CN3C(=O)N(CCc4ccccc4)C(=O)[C@]3(Cc3ccccc3)[C@H]21	i	/
COc1ccc(CNCC(=O)Nc2cc(C)nn2-c2nc(C)cc(C)n2)cc1OC	i	>57
O=C(c1cc(-c2cccs2)on1)N1CCN(c2ccc(F)cc2)CC1	i	>57
Cc1nc(N2CCCC2C(=O)O)c2oc3ccccc3c2n1 (centres undefined)	i	>57
O=C(c1csnn1)N1CCC2(CC1)CCN(c1ncccn1)CC2	i	/
COC(=O)C1=C(C)N(C)C(C)=C(C(=O)OC)C1c1ccncc1	i	>57
Cc1ccc2nc(-c3cccc(S(=O)(=O)N(C)C)c3)cn2c1	i	i
CC(=O)c1ccc(S(=O)(=O)N(Cc2cc3cc4c(cc3[nH]c2=O)OCCO4)CC2CCCO2)cc1 (centres undefined)	i	>57
CC(C)c1cc(C(=O)Nc2cccc(Cl)c2)no1	i	i
S=C(N=Nc1ccccc1)NNc1ccccc1	/	>26
CCOC(=O)c1ccc(N2CSC3=C(C#N)C(c4cccs4)CC(=O)N3C2)cc1 (centres undefined)	i	/
Fc1ccccc1N1CCN(Cc2nc(-c3ccccc3)no2)CC1	i	>57
c1cncc(-c2nccc(-n3ccnc3)n2)c1	i	/
O=C(Nc1cccnc1)c1c(O)c2cccc3c2n(c1=O)CC3	i	>57
Cn1c[n+](C)cc1/C=N/O	/	>26
O=C(c1cc2c(=O)n3ccccc3nc2s1)N1CCOCC1	i	/
CCn1c(=O)cc(NC2=NCC(C)CN2c2cccc(Cl)c2)n(C)c1=O (centres undefined)	i	>57
CCn1c(COc2ccc(Cl)cc2)nnc1SCc1ccc(C#N)cc1	i	>57
Cc1oc(/N=C/c2ccccc2O)c(C#N)c1C	i	/
CCn1c(=O)cc(SCC(=O)N2CCC(C)CC2)c2ccccc21	i	>57
CCC(C)(C)NC(=O)C(c1ccc(F)cc1)N(Cc1ccco1)C(=O)CCC(=O)Nc1ccccn1 (centres undefined)	i	>57
Cn1c(=O)c2c(SCC(=O)N3CCN(c4ccccc4)CC3)nc(C3CC3)nc2n(C)c1=O	i	/
Cc1c(NC(=O)C2CCCCN2S(=O)(=O)c2ccc(Cl)cc2)c(=O)n(-c2ccccc2)n1C (centres undefined)	i	/
CCN(CCNS(=O)(=O)c1ccc2[nH]c(=O)sc2c1)c1ccccc1	i	/
O=C(CSc1nc2ccccc2o1)NCCOc1ccccc1	i	>57
Cc1ccccc1OCC(=O)NCCN1CCCC1	i	>57
C[C@@]1(O)CCOC(=O)C1	i	/
Cc1ccc(S(=O)(=O)c2c(N)n(/N=C/c3ccco3)c3nc4ccccc4nc23)cc1C	i	>57
CC(=O)c1nc2ccccc2n1S(=O)(=O)c1ccc(Cl)cc1	i	>57
Cc1c(C(=O)N2CCN(c3ccccc3)CC2)sc2ncnc(N3CCN(c4ccccc4)CC3)c12	i	>57
Cc1ccc(N2CCN(S(=O)(=O)c3ccc(F)cc3)CC2)c(C)c1	i	/
Cc1cccc(OCC(O)Cn2c(-n3nc(C)cc3C)nc3c2c(=O)[nH]c(=O)n3C)c1 (centres undefined)	i	>57
CCC(=O)Nc1ccc(Br)c(Cl)c1	i	>57
CCOC(=O)CSc1ccc2nnc(-c3ccccc3)n2n1	i	/
CCOC(=O)C(NC(=O)c1ccc(F)cc1)(Nc1nnc(C)s1)C(F)(F)F (centres undefined)	i	>57
Cc1ccc(C(C)C)c(OCC(=O)Nc2ccc(N3CCN(S(C)(=O)=O)CC3)cc2)c1	i	>57
COc1cccc(NC(=O)N2CCCC(C(=O)Nc3ccccc3OC)C2)c1 (centres undefined)	i	>57
O=C(OCC1COc2ccccc2O1)c1ccccc1F (centres undefined)	i	>57

An excerpt, so the mix of outcomes need not match the whole.
